From PubChem
UCH37 inh: inhibitors of human UCH37 deubiquitinase, primary screen, biochemical, Ub-AMC cleavage, fluorescence; Ubiquitin carboxyl-terminal hydrolase isozyme L5 (Homo sapiens), Q9Y5K5; purified proteasome/UCH37; inhibition, % (test concentration not listed); 330,000 compounds, 0.33% hits; AID 588478, 2011;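 active = mean of two replicates above 20%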;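 also: 0% = compound-free wells with enzyme and 100% = wells lacking proteasome; stock transfer was 100 nL into about 20 µL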
Target sequence (Q9Y5K5 whole entry, looked up): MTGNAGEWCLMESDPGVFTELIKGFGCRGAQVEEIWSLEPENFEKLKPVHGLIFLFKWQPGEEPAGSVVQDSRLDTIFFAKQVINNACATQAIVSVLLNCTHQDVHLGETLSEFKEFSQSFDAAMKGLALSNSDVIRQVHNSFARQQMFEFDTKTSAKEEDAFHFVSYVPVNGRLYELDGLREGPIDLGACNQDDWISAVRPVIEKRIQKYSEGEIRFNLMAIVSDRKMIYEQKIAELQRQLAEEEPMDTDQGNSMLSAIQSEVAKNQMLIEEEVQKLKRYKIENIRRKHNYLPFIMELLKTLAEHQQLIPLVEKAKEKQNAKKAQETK
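Assay system: Proteasome-bound UCH37. Buffer or medium: pH 7.4 Tris-HCl (50 mM) with ovalbumin, ATP-MgCl2, DTT. Incubation: 30 min preincubation with enzyme, 25 min cleavage at room temperature. Measured by: fluorescence, ex 355 nm, em 460 nm. Read-out basis: percent inhibition. Control set: wells without proteasome as full block, compound-free enzyme plus substrate as uninhibited.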
E coli growth: E. coli growth inhibition, primary screen, OD600. AID 1053175, 2014. OD600 absorbance (test concentration not listed). 330,000 compounds, 0.21% hits. Escherichia coli growth, 23 h; stronger effect = lower value;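 active = OD600 absorbance below the run mean of sample wells minus 3.6 SD, in any replicate, cut at about 0.56 in these data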;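 also: stock transfer was 300 nL into about 60 µL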
AF4-AF9 inh: inhibitors of AF4 peptide binding to AF9, primary screen, biochemical, AlphaScreen, biotin-AF4 peptide, FLAG-AF9, single point; AID 651704, 2012; 350,000 compounds, 0.47% hits; Protein AF-9 (Homo sapiens), P42568; inhibition, % at 10 µM;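 active = every replicate reaching a set inhibition limit, whatever the replicate mean, cut at about 25% in these data; inconclusive = mean inhibition reaches that limit but some replicates miss it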;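 also: 0% = plate neutral control median and 100% = total signal loss; the record names both 10 and 1 µM as test concentration; the first replicate is given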
Target sequence (P42568 whole entry, looked up): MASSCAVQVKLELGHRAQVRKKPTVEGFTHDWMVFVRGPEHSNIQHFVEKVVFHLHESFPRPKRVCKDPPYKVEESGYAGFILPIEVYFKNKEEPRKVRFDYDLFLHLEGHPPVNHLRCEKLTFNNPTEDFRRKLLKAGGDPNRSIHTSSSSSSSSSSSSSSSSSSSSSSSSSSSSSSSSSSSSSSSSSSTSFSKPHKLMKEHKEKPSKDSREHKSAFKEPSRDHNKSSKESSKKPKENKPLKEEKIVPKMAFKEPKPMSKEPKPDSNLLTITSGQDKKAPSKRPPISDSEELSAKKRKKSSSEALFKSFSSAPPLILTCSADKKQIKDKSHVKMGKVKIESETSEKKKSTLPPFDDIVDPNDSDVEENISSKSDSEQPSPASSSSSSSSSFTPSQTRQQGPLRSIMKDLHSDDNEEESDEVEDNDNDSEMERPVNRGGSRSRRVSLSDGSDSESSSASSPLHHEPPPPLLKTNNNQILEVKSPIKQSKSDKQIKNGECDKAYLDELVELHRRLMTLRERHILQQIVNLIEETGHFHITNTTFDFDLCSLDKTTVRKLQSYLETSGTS
Ecoli rRNA inh: reduced GFP signal of wild-type E. coli, primary screen, bacterial rRNA inhibitor project, GFP/RFP fluorescence, OD600, single point. GFP signal change (wild-type ribosome), % (no concentration beside the values). 350,000 compounds, 1.6% hits. E. coli WT GFP vs humanized-ribosome RFP mutants, 24 h; stronger effect = lower value; DMSO median 0, no signal -100. AID 720706, 2013;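 active = significant combined selectivity score with lowered wild-type GFP, culture density cut under 30%, mutant RFP and density less affected; inactive = any of these conditions unmet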; also: one replicate is shown; some compounds called inactive have numbers as strong as hits
T cruzi repl: inhibitors of intracellular T. cruzi growth, primary screen, luminescence, NIH3T3 host cells. AID 1885, 2009. inhibition, % (concentration not given with the values). 300,000 compounds, 1.4% hits. T. cruzi beta-gal in NIH3T3, 90 h;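 active = mean inhibition across valid replicates above about 55%, limit read from the data; inconclusive = mean below that limit but half or more replicates reach it; inactive = mean below it, under half of replicates reach it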;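 also: signal also drops with host cell toxicity which is not excluded here; 0% = plate median of DMSO wells and 100% = zero luminescence signal; higher percent means less beta-gal luminescence so fewer parasites; stock transfer was 50 nL into about 50 µL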
FGF22 binding: binders of human FGF22 protein, primary screen, FGF22 synaptogenesis inhibitor project, biophysical, thermal shift, single point. recombinant FGF22 thermal shift, SYPRO orange fluorescence; percent of sucrose octasulfate shift, DMSO zero. Fibroblast growth factor 22 (Homo sapiens), Q9HCT0. AID 651658, 2012. 340,000 compounds, 1.5% hits. calls only at 9.99 µM;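 active = melting point raised past a set limit in the mean and every replicate; inconclusive = no clear call; three in four hits are not shown here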
Beta apoptosis: inhibitors of cytokine-induced beta cell apoptosis, primary screen, luminescence. INS-1E cytokine-induced death, ATP luminescence, 48 h; percent of positive-control rescue, neutral wells zero. 300,000 compounds, 0.8% hits. protection from apoptosis, % (test concentration not listed). AID 435005, 2010;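 active = all replicates at 75% or more, or half of them and the mean; inconclusive = half reach 75% but not the mean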;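 also: 0% = cytokine-treated negative control wells and 100% = positive control rescue; higher means more ATP so stronger rescue from cytokine killing; wells of about 40 µL received 100 nL stock; the first replicate is given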
Bfl-1 A1 inh: caspase 3/7 activation in MEF A1-2A-BIM cells, primary screen, A1 inhibitor project, cell-based, luminescence, HTS | 330,000 compounds, 0.066% hits | caspase activation, % (concentration not given with the values) | Caspase-Glo 3/7 luminescence, 3 h; percent of clofoctol response, vehicle zero | AID 2462, 2010;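 active = over half of replicate activation scores above 10%, or exactly half above 10 with the replicate mean above 10; inconclusive = replicate mean below 10 yet half the replicates above 10; inactive = over half of replicates below 10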;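 also: wells of about 30 µL received 50 nL stock; many hits fall short of the cut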
Ecoli rRNA inh OD600: also measured in Ecoli rRNA inh; calls as there; OD600 change, %; measured here: OD600 growth;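 optical density of the mix in the first replicate; 0 = DMSO median and -100 = no signal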
Ecoli rRNA inh RFP: further read-out of Ecoli rRNA inh, marked with its call; RFP signal change, %; measured here: RFP humanized mutant strains;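 first replicate; 0 = DMSO median and -100 = no signal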
Numbers without * were called inactive; i = inactive; ? = inconclusive; nt = not tested or not shown; & = joins results of further samples. This is a subset; rates above refer to the full screens.

SMILES	UCH37 inh	E coli growth	AF4-AF9 inh	Ecoli rRNA inh	Ecoli rRNA inh OD600	Ecoli rRNA inh RFP	T cruzi repl	FGF22 binding	Beta apoptosis	Bfl-1 A1 inh
COc1ccc(CCNC(=O)c2ccc(N(C)S(=O)(=O)c3ccc(C)cc3)cc2)cc1OC	1.4	0.67	0.7	-21	-19	-1.4	19	i	-6	-0.3
O=C(NCCCN1CCOCC1)c1cc(S(=O)(=O)N2CCN(c3ccccc3)CC2)ccc1Cl	3.1	0.61	1.3	0	-7	0.9	6	nt	-3	0.7
Cc1ccc(N(C(C)C(=O)N2CCN(Cc3ccccc3)CC2)S(C)(=O)=O)cc1 (centres undefined)	4.3	0.67	-0.1	9	6	1.2	16	i	4	-0.4
COc1cc(NC(=O)Cn2cnc(S(=O)(=O)N3CCCC3)c2)cc(OC)c1OC	5.2	0.67	1.2	5	6	-2.6	-1	i	2	0.8
CC1(S(=O)(=O)O)CC(=O)c2ccccc2C1=O (centres undefined)	0.7	0.62	-3.4	nt	nt	nt	8	i	-5	-1.0
O=C(COC(=O)c1cccc(O)c1)Nc1ccc(S(=O)(=O)N2CCOCC2)cc1	0.7	0.69	3.4	-8	-3	0.7	nt	i	-1	-0.8
CCn1cc(C2=NC(C(C)C)CO2)c2ccccc21 (centres undefined)	2.7	0.75	-4.5	6	-6	-4.5	-7	i	1	-1.0
Cc1cccc(NC(=O)CSc2nnc(CNC(=O)c3ccc(S(=O)(=O)N(C)C)cc3)n2-c2ccc(F)cc2)c1	1.2	0.65	2.2	-10	-11	-4.4	4	i	2	?
CCOc1ccc(S(=O)(=O)NCCC(=O)N2CCN(c3ccccc3O)CC2)cc1	1.4	0.64	4.0	-2	-4	0.3	-8	i	2	-0.3
CC(C)c1onc(C(=O)N2CCCCC2)c1[N+](=O)[O-]	-3.5	0.72	nt	nt	nt	nt	-24	nt	3	-0.8
Cc1ccc(NC(=O)C2CCCN2C(=O)OCc2ccccc2)cc1F (centres undefined)	0.1	0.69	-2.1	-4	-3	1.9	-5	i	1	-0.5
CCCC(C(=O)NCc1ccc(OC)cc1)N(Cc1ccco1)C(=O)c1snc(C(N)=O)c1N (centres undefined)	-17	0.69	nt	nt	nt	nt	7	nt	-7	0.1
CSc1nsc(SC)c1C(=O)N1CCN(S(=O)(=O)c2ccc(C)cc2)C1C (centres undefined)	2.1	0.7	nt	nt	nt	nt	4	nt	-8	0.8
CCOCCc1nnc(NC(=O)c2cccs2)s1	4.1	0.69	nt	nt	nt	nt	-5	nt	-5	-5.6
CC(=O)NNC(=O)c1ccncc1	3.8	0.69	nt	nt	nt	nt	1	nt	-5	0.9
COc1ccc(/C=C/C(=O)Nc2cccc(S(=O)(=O)NC3=NCCCCC3)c2)c(OC)c1	-9.8	0.7	-0.9	-13	-14	-0.1	nt	i	-5	0.7
CC1(c2ccc(OC(F)F)cc2)NC(=O)N(CC(=O)N2CCN(C(=O)c3ccco3)CC2)C1=O (centres undefined)	-0.4	0.67	-1.5	2	4	-2.1	nt	i	-4	1.4
Cc1ccc(OCCC(=O)OCC(=O)Nc2ccc3c(c2)OCO3)cc1	-0.6	0.66	3.3	6	16	0.3	-16	i	-8	-0.2
Cc1onc(-c2c(Cl)cccc2Cl)c1C(=O)NNC(=O)c1c(-c2c(Cl)cccc2Cl)noc1C	2.0	0.7	-0.1	-35*	-27*	1.1*	25	i	-6	-0.4
CCCc1cc(C(=O)N2CCCC(CO)(CCCc3ccccc3)C2)n(C)n1 (centres undefined)	1.3	0.7	-1.0	-14	-23	2.1	0	i	-2	-0.4
COc1cc(NC(=O)NCC2CCN(Cc3ccccc3F)CC2)cc(OC)c1	3.5	0.65	4.7	7	-1	-0.4	7	i	8	0.7
Cc1ccsc1/C=N/NC(=S)NCc1ccccc1	nt	nt	9.2	-10	-4	3.5	1	i	2	0.2
COc1ccc(C(=O)NCCn2nc(C)cc2C)cc1OC1CCN(C(C)=O)CC1	-0.2	0.71	-13	-1	1	-1.0	-18	i	-5	0.6
O=[N+]([O-])c1ccc2nonc2c1Nc1ccccc1	5.6	0.64	4.5	9	16	5.2	-2	i	6	0.5
COc1ccc(C(=O)COC(=O)CCCC(=O)NC2CCCCC2)cc1	1.8	0.73	-1.0	nt	nt	nt	-11	i	-6	-1.0
COc1ccc(C(C)=O)cc1CN(C)C	2.2	0.62	nt	nt	nt	nt	-6	nt	-1	-0.2
CCN(CC)S(=O)(=O)c1cc(NC(=O)COC(=O)c2c(C)noc2C)ccc1C	0.6	0.64	0.7	0	-25	0.7	nt	i	1	-0.9
Cc1cc(OCCCn2ccnc2)cc(C(C)C)c1	2.2	0.69	1.2	9	3	0.7	27	i	-5	0.5
COc1ccc(C(C)NC(=S)NC2CCCCC2)cc1OC (centres undefined)	5.2	0.7	-12	3	19	2.9	-4	i	0	0.2
COc1cc(/C=N/NC(=O)NC2CCCCC2)ccc1O	nt	nt	-22	0	-5	-0.8	7	i	5	-0.5
CCOc1ccccc1/C=N\Nc1cnn(Cc2ccccc2)c(=O)c1Cl	nt	nt	7.4	6	9	2.5	56*	i	-2	0.1
COCCN(C(=O)CSc1cc(C)c2ccccc2n1)c1c(N)n(CC(C)C)c(=O)[nH]c1=O	6.8	0.69	0.3	11	12	-1.5	nt	i	-5	0.3
COCCN(CCOC)S(=O)(=O)c1ccc(C(=O)NCCCN2CCOCC2)cc1	-1.3	0.77	nt	4	-2	-1.9	-9	nt	-1	0.0
CC(C)(C)C(=O)C[n+]1ccccc1	0.0	0.66	-2.3	14	9	0.2	-16	i	-14	0.2
Cc1cccc(NC(=O)c2nc[nH]c2C(=O)NCC(=O)OC(C)(C)C)c1	3.6	0.7	-1.9	-51	-82	-27	5	i	1	0.9
CCOC(=O)c1cc2c(ccn2C)n1CC(=O)N(CC)CC	-0.8	0.7	2.0	13	0	2.0	-15	i	-3	1.2
Cc1cccc(C)c1NC(=O)CN(C)CC(=O)Nc1cc(Cl)ccc1C#N	-0.9	0.74	nt	nt	nt	nt	-6	nt	-1	1.0
NC(=O)c1ccsc1NC(=O)COC(=O)c1ccccc1F	4.6	0.7	0.0	-6	-20	-0.7	nt	i	-3	-1.7
Cn1c(=O)c2c(nc(CN3CCC(C(N)=O)CC3)n2Cc2c(Cl)cccc2Cl)n(C)c1=O	-0.2	0.66	nt	nt	nt	nt	-6	nt	2	0.3
OCCN(CCO)Cc1csc2ccccc12	3.2	0.65	nt	nt	nt	nt	3	nt	2	0.0
CN(C)c1ccc(/C=N\Nc2nc(-c3ccccc3)cc(=O)[nH]2)cc1	nt	nt	-1.1	-2	1	-6.7	21	i	6	-0.5
COc1cccc(NS(=O)(=O)c2ccc3c(c2)N(C(C)=O)CCS3)c1	0.2	0.7	-0.2	0	-11	-0.2	6	i	5	-0.2
COc1ccc(C(=O)N/N=C/c2ccc(N3CCOCC3)o2)cc1OC	nt	nt	-8.3	4	11	2.6	14	i	-11	-0.6
CCC(C)[C@@H](CN(N=O)[C@@H](Cc1ccccc1)CN(C)N=O)N(CCc1ccccc1)N=O (some centres undefined)	1.7	nt	nt	nt	nt	nt	28	nt	2	0.3
CCN(c1ccccc1)S(=O)(=O)c1ccc(Cl)c(NC(=O)c2ccc(=O)[nH]n2)c1	0.1	0.7	-1.3	nt	nt	nt	nt	i	-1	-0.1
COP(=O)(OC)c1nc(-c2cccc3ccccc23)oc1N1CCCCC1	i	0.68	-5.9	-49	-70	-7.3	10	i	-2	0.2
CCCCNC(=O)/C(C#N)=C/c1ccc(-c2ccc(S(=O)(=O)N3CCOCC3)cc2)o1	-2.7	0.68	nt	nt	nt	nt	12	nt	0	-0.7
O=C(CSc1ccc(Cl)cc1)NC(=O)NC1CCCC1	2.8	0.67	-1.2	-1	-38	-3.7	nt	i	nt	nt
O=C(/C=C/c1ccc(F)cc1)NC(=S)Nc1ccccc1C(=O)NC1CCCCC1	6.7	0.65	nt	nt	nt	nt	-4	nt	4	3.7
CCC(CC)C(=O)Nc1ccc(C)c(O)c1	-1.7	0.73	nt	nt	nt	nt	11	nt	-1	0.1
O=C(CCC1CCCN(Cc2cccc(Cl)c2)C1)NCc1ccccc1F (centres undefined)	2.7	0.69	-1.1	0	2	2.7	61*	i	3	1.0
O=c1[nH]c2ccc(NC(=S)Nc3ccc(Cl)cc3)cc2[nH]1	0.1	0.69	nt	nt	nt	nt	-5	nt	-1	0.5
COc1ccccc1NC(=O)NCCN1CCNC1=O	4.5	0.7	-1.2	1	7	-3.0	nt	i	-1	0.9
Cn1cc(/C=C(\C#N)C(=O)Nc2cccc([N+](=O)[O-])c2)c2ccccc21	5.5	0.72	-1.6	11	21	-4.8	-2	i	27	0.1
O=C(NCc1ccco1)c1nn2c(C(F)(F)F)cc(-c3cccs3)nc2c1Cl	-18	0.73	-8.2	-3	-5	-1.8	9	i	2	-0.8
COc1ccc(NC(=O)CSc2nc3ccccc3c(=O)n2C)cc1	1.5	0.66	-0.3	1	17	-9.2	2	i	13	0.3
Cc1ccc(NC(=O)c2cc(-c3ccccc3O)n[nH]2)cc1Cl	0.6	0.69	-8.4	1	14	-1.0	-8	i	3	0.8
CCn1c(COC(=O)CNC(=O)c2cc(OC)c(OC)c(OC)c2)nc2cc(S(=O)(=O)N(C)C)ccc21	1.3	0.67	-0.7	6	-2	-1.4	-13	i	-7	0.9
CCCCN1CNC(=S)N(c2ccccc2OCC)C1	0.7	0.7	nt	nt	nt	nt	5	nt	-4	-0.6
C[C@H]1CN([C@@H](C)CO)C(=O)c2cccc(NS(=O)(=O)c3ccc(F)cc3)c2O[C@H]1CN(C)S(=O)(=O)c1cn(C)cn1	0.1	0.72	-0.9	2&5	1&7	-1.2&0.3	nt	i	-3	0.4
